Source: PubChem (National Center for Advancing Translational Sciences (NCATS))
HSD17B inhib – qHTS Assay for Inhibitors of HSD17B4, hydroxysteroid (17-beta) dehydrogenase 4. 75,000 tested, 7.6% active. Potency, µM (highest dose often 57.1 µM), for the others: at the top dose activity change, negative = inhibition, most hits filed as inhibitors. AID 893, 2007. recombinant HSD17B10, NADH fluorescence kinetic; many of its hits are not listed in these tables; active = well fitted inhibition curve with a large enough effect; inconclusive = small, poorly fitted or top-dose-only effect; inactive = no such curve, though single readings can be large or run the other way;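 also: the protocol describes HADH2 (HSD17B10) and not the HSD17B4 of the title; nearly all actives have a fitted effect of over 70% in size; most hits overshoot -100% by far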
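20 nM HADH2, pH 9.0 Tris/Tween; cpd preinc 15 min RT; start w/ 1 mM NAD+ + 90 uM b-hydroxybutyryl-CoA; kinetic fluor ex360/em450 q30s x 4 min; delta last-first.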
Starred values were filed as active, the others as inactive; ? = inconclusive; [ ] = remark or other dose. % is scaled to controls: 0 for no effect and ±100 for the full control effect; potency is read from the fitted curve at half-maximal effect.

molecule	HSD17B inhib
COC(=O)c1ccc(C(/C=C/[C@@H](C)C(=O)NCc2ccccc2)NC(=O)OCc2ccccc2)cc1 (stereo partly drawn)	9.5%
CCN(CC)S(=O)(=O)c1cccc(C(=O)N2CCCCC2)c1	10.3%
Cc1nn(CC(=O)Nc2ccccn2)c(=O)c2ccccc12	11.1%
Cn1c(=O)[nH]c2nc[nH]c2c1=O	7.0%
O=c1cc(CO)oc(CN2CCC(Cc3ccccc3)CC2)c1O	-14.7%
O=c1ccn([C@@H]2O[C@@H](COP(=O)(O)OP(=O)(O)O)[C@H](O)[C@@H]2O)c(=O)[nH]1	-15.9%
CCCC(=O)Nc1nnc(COC)s1	-1.7%
CN1CCN(CCN2CCn3c2nc2ccccc23)CC1	15.8%
COc1ccccc1-c1cc(C2CC2)nc(N)c1C#N	31.6µM*
COC(=O)c1nc2n(n1)C(c1cccc(Cl)c1)C1=C(CC(C)(C)CC1=O)N2 (stereo not drawn)	83.8%[activator]
CN(CCc1ccccn1)S(=O)(=O)c1ccccc1F	3.8%
Cc1cccc(N(CC(=O)NCc2ccco2)C(=O)CCC(=O)Nc2ccccn2)c1	3.3%
CCN(CC)C(=O)CSc1ccccc1N	-10.0%
Cc1noc(C)c1C(=O)NCCc1ccc(Cl)cc1	-7.9%
O=C1CN(C(=O)OCc2ccccc2)c2ccccc2N1	7.9%
O=C(Nc1ccc2ccccc2c1)[C@@H]1C[C@H]1[C@@H](NP(=O)(c1ccccc1)c1ccccc1)c1ccccc1	-2.5%
COc1ccccc1NC1=C(C)C(=O)CC1	-4.7%
O=C(CCn1cccc1)NCc1ccc2c(c1)OCO2	1.1%
CN1CCN(C(=O)c2cc(-c3cccc(Cl)c3)on2)CC1	7.2%
CCc1nnc(NC(=O)CSc2nnc(-c3ccccc3O)n2-c2ccc(C)cc2)s1	3.2%
c1ccc(N2CCN(c3c4c(nc5ncnn35)CCC4)CC2)cc1	-8.2%
Cc1ccc(N(C(C)C(=O)O)S(=O)(=O)c2c(C)n[nH]c2C)cc1 (stereo not drawn)	-2.1%
c1ccc(Cn2c(SCCN3CCOCC3)nnc2-c2cccnc2)cc1	0.1%
CN(CCc1ccccn1)C(=O)CN(C)S(=O)(=O)c1ccc2c(c1)c(=O)n(C)c(=O)n2C	-3.1%
O=C(O)c1cc(=O)[nH]c(=O)[nH]1	1.4%
CC(C)[C@H](NC(=O)OC(C)(C)C)c1nnc(SCc2cccc(F)c2)o1	1.0%
c1ccc(CNc2ncnc3ccc(-c4ccc5c(c4)OCO5)cc23)cc1	25.1µM*
COc1ccccc1N1C(=O)c2ccccc2NC1c1ccncc1 (stereo not drawn)	31.6µM*
Cc1csc(NC(=O)Cn2cnnn2)n1	7.5%
NC(=O)c1nnn(Cc2cc(Cl)c(C(=O)c3ccc(Cl)cc3)c(Cl)c2)c1N	7.7%[11.4 µM]

Additional structures:
molecule	HSD17B inhib
Cc1ccc2c(c1)cc(CN(Cc1ccc3c(c1)OCO3)S(=O)(=O)c1ccccc1)c1nnnn12	?
COc1ccc(Cc2nnc(-c3cccc(C)c3)o2)cc1OC	0.7%
COCc1nnc(NC(=O)CCCCCN2C(=O)c3ccccc3C2=O)s1	-11.7%
O=C(O)C1C2CCC(O2)C1C(=O)Nc1cccc(F)c1 (stereo not drawn)	15.1%
COc1cc(Cl)cc(C#N)c1OCC(=O)O	9.8%
CCOC(=O)Cc1csc(NC(=O)c2ccc(Br)s2)n1	0.9%
O=C(NC1CCCC1)C1C2C=CC(C2)C1C(=O)N1CCOCC1 (stereo not drawn)	2.2%
Nc1ccc(Sc2nnnn2-c2ccccc2)c(Cl)c1	2.7%
CCC(=O)N1CCN(c2ccc(Cl)cc2NC(=O)c2ccc(Br)o2)CC1	25.1µM*
CCOC(=O)c1cccc(NC(=O)CCn2nnc3ccccc32)c1	4.6%
COc1ccc(CNC(=O)C(c2cccs2)N(C(=O)c2csnn2)C2CC2)cc1 (stereo not drawn)	1.2%
Nn1c(SCC(=O)NCc2ccccc2)nnc1C1CC1	3.2%
CS(=O)(=O)Nc1ccccc1C(=O)c1ccccc1	8.7%
Cc1c(C(=O)Nc2cccc3cccnc23)oc2ccccc12	-6.2%
O=C(O)c1cc(-c2ccc3c(c2)OCO3)nc2ccccc12	-0.8%
COC(=O)CSc1nsc(SCC(=O)OC)c1C#N	-20.3%
O=C(CCCCCn1c(=S)[nH]c2cc3c(cc2c1=O)OCO3)N1CCN(C(=O)c2ccco2)CC1	-9.5%
CCOC(=O)C1=C(C)N(C)C(C)=C(C(=O)OCC)C1c1ccccn1	2.4%
O=C(Cn1c(S(=O)(=O)Cc2ccccc2)nc2ccccc21)N1CCCCC1	1.1%
CC(C)C(NCc1c(Cl)cccc1Cl)C(=O)O (stereo not drawn)	3.7%
COc1ccc(C(=O)N2CCOCC2)cc1Br	4.9%
CCN(CC)S(=O)(=O)c1ccc2c(c1)c(=O)c(C(=O)NCCN(C)CCc1ccccc1)cn2C	-7.2%
CCCCn1c(Oc2ccc(C(=O)OC)cc2)nc2c1c(=O)n(C)c(=O)n2C	-4.3%
CC(C)CC(c1nnnn1CC1CCCO1)N1CCN(C2CCCC2)CC1 (stereo not drawn)	6.2%
C[N+](C)(N)CCC[N+](C)(C)N	6.2%[11.4 µM]
CO[C@H]1COC(=O)C/C=C\[C@@H](C)COC(=O)[C@@H](C)NC(=O)C/C=C\[C@@H]1C	6.0%[11.4 µM]
CCC1CCCN1Cn1cnc2c([nH]c3ccc(OC)cc32)c1=O (stereo not drawn)	25.1µM*
O=C(O)C1CCCN1C(=O)Nc1ccccc1 (stereo not drawn)	1.4%
Cc1c(NC(=O)c2cc(-c3ccco3)on2)c(=O)n(-c2ccccc2)n1C	-22.7%
CCC(CC)COC(=O)C(C#N)c1nc2ccccc2nc1N1CCOCC1 (stereo not drawn)	7.3%

(next part)
molecule	HSD17B inhib
O=C(CN1C(=O)c2ccccc2C1=O)Nc1ccc2c(c1)OCO2	?
c1ccc(CNc2nc(-c3cccnc3)nc3ccccc23)cc1	?
O=C(Cn1ccc2ccccc2c1=O)NCCC(=O)NC1CCN(Cc2ccccc2)CC1	-2.7%
N#Cc1ccccc1Cn1c(=O)n(CCC(=O)NCc2ccco2)c(=O)c2ccccc21	-4.4%
OC(C#CCN1CCOCC1)c1cccs1 (stereo not drawn)	-1.6%
N#[N+]c1ccc(Nc2ccccc2)cc1	2.3%[11.4 µM]
CCOC(=O)Cn1nnnc1CN(Cc1ccc(OC)cc1)Cc1cc2cc(C)ccc2[nH]c1=O	?
N=C1C(c2nc(-c3ccc(F)cc3)cs2)=C(O)CN1CCCN1CCOCC1	15.8%
COc1cc(C(=O)Nc2cc(-c3ccccc3)[nH]n2)cc(OC)c1OC	-0.3%
CCOc1cc(-c2nc(-c3cc(OC)c(OC)c(OC)c3)no2)cc(OCC)c1OCC	-5.0%
COc1ccc(-c2noc(-c3cccc(Cl)c3)n2)cc1OC	-16.7%
CCN(Cc1nc2ccccc2c(=O)[nH]1)Cc1nc2cc(OC)c(OC)cc2c(=O)[nH]1	-2.1%
CCN(C(=O)c1cc2cccc(OC)c2oc1=O)c1ccccc1	-3.0%
CN1CCN(c2nc(-c3ccncc3)nc3ccccc23)CC1	0.5%
CCCc1nnc(SCC(=O)N2CCCC2)n1CC1CCCO1 (stereo not drawn)	1.2%
COc1ccc(C2C(C(=O)c3ccc(C)o3)=C(O)C(=O)N2c2cc(C)on2)cc1OC (stereo not drawn)	-3.8%
COc1ccc(CN(Cc2cc3cc(C)ccc3[nH]c2=O)C(=O)N(C)C)cc1	?
O=C(CSc1nnc(Cc2cc(=O)[nH]c(=O)[nH]2)n1-c1ccc(Cl)cc1)NC1CCCC1	5.4%
Cc1ccc(-c2nn(-c3ccccc3)cc2C(=O)N2CCOCC2)cc1	1.2%
CCOc1ccccc1NC(=O)C1CCCN(S(=O)(=O)c2c(C)[nH]c(=O)[nH]c2=O)C1 (stereo not drawn)	6.1%
CCCCNC(=O)Oc1cccc(N2CCCC2=O)c1	-11.0%
C=CCN=C1SCC(=O)N1S(=O)(=O)c1ccc(C)cc1	-5.9%
COc1ccc(NC(=O)NCCN2CCN(c3cccc(Cl)c3)CC2)cc1	10.0%
CCOC(=O)c1cccc(NC(=O)CSc2nnc(C3CCCCC3)n2CC)c1	-13.6%
O=C(Nc1ccccc1OC(F)F)c1ccccc1	5.4%
O=C(O)CSCc1ccc(Cl)cc1	5.2%
CC(=O)c1cccc(NS(=O)(=O)c2c(C)n[nH]c2C)c1	3.2%
CCCc1nn(CCc2ccccn2)c(N)c1CC	1.4%
O=S(=O)(O)c1cc(N=[N+]([O-])c2cc(S(=O)(=O)O)c3ccccc3c2)cc2ccccc12	3.16µM*
O=C(O)c1c(Cl)c(Cl)c(Cl)c(Cl)c1C(=O)Nc1ccc2cn[nH]c2c1	?

Rewritten as labelled records: part of the list above
molecule: CCOc1cc(-c2nc(-c3cc(OC)c(OC)c(OC)c3)no2)cc(OCC)c1OCC
  HSD17B inhib = -5.0%
molecule: CCOC(=O)C1=C(C)N(C)C(C)=C(C(=O)OCC)C1c1ccccn1
  HSD17B inhib = 2.4%

Continuation:
molecule	HSD17B inhib
CCOc1ccccc1NC(=O)CSc1c(C)n[nH]c1C	-9.5%
COc1ccc(CCn2c(-c3ccco3)nc3nc4ccccc4nc32)cc1OC	-12.8%
Cn1c(=O)c2c(n(Cc3ccccc3)c1=O)NC(=O)C2CC(=O)N1CCc2ccccc2C1 (stereo not drawn)	-6.2%
CCOC(=O)NCc1ccc2c(c1)OCO2	-1.1%
COc1ccc(-c2[nH]nc3oc(=O)cc(C)c23)cc1	31.6µM*
O=C(Oc1cccc(NC(=O)c2ccco2)c1)c1cccc(S(=O)(=O)N2CCCC2)c1	?
COc1ccc(C(=O)N2c3ccc(F)cc3CCC2C)cc1OC (stereo not drawn)	3.4%
Cc1cc2c(c(=O)n1CCN(C)C)C(c1ccc(Cl)cc1)C(C#N)=C(N)O2 (stereo not drawn)	-2.5%
O=C(c1noc2c1CCCC2)N1CCN(Cc2ccccc2)CC1	1.3%
O=C(c1ccc(S(=O)(=O)N2CCCCC2)cc1)N1CCCc2ccccc21	-17.9%
Cc1ccc(/C=C/S(=O)(=O)N2CCC(C(=O)O)CC2)cc1	4.2%
Nc1nnc(SCC(=O)N2CCc3ccccc32)n1-c1ccccc1	-0.2%
COc1ccc(NC(=O)N2CC[C@@]3(CCCN(C(=O)c4csnn4)C3)C2)cc1	-2.8%
Cc1ccc(C2CC(=O)c3cnc(N4CCN(c5ccccc5)CC4)nc3C2)cc1 (stereo not drawn)	?
COc1ccc(OC)c(N(CC(=O)Nc2cccnc2)S(=O)(=O)c2ccc(OC)c(OC)c2)c1	5.3%
O=C(NCCCN1CCOCC1)c1cc2c(=O)[nH]c3ccccc3c2s1	15.8µM*
COc1ccc(CN(Cc2cc3cccc(C)c3[nH]c2=O)C(=O)N(C)C)cc1	-4.1%
CCOC(=O)c1cc(C(=O)OCC)cc(-n2c(C)cc(C(=O)CN3CCOCC3)c2C)c1	-2.1%
CCOC(=O)N1CCN(c2c(NCC3CCCO3)c(=O)c2=O)CC1 (stereo not drawn)	7.4%
Cc1cc(C(=O)OCC(=O)c2ccc(Br)s2)c(C)o1	-11.6%
C=CCOC(=O)c1[nH]c2c(c1C)C(=O)CC(c1cc(OC)c(OC)c(OC)c1)C2 (stereo not drawn)	3.7%
Cc1ccn2cc(C(=O)Nc3nnc(C)s3)nc2c1	-6.2%
Cc1nc(CNS(=O)(=O)c2cc(C)c(C)cc2C)cs1	4.0%
O=C(CSc1nnc2n(C3CCCCC3)c(=O)c3ccccc3n12)OC1CCCCC1	4.1%
Cc1cc(C(F)F)n2nc(C(=O)Nc3c(F)cc(F)cc3Br)nc2n1	4.3%
Cc1ccc(C)c(N2CCN(C(=O)C3CCN(S(=O)(=O)c4cccc5nsnc45)CC3)CC2)c1	-2.7%
COC(=O)[C@H](CCSC)NC(=O)Nc1ccc(C(C)=O)cc1	5.2%
Cc1cccc(N2CCN(C(=O)c3ccc(N4CCCC4=O)cc3)CC2)c1C	6.5%
Oc1ccc2cccnc2c1	-21.6%
CCCN1Cc2cccc(C(=O)NC3CCCC3)c2C1=O	5.3%

The results go on:
molecule	HSD17B inhib
COc1ccc(C2C3=C(CC(C)(C)CC3=O)Nc3n[nH]c(C)c32)cc1 (stereo not drawn)	15.8µM*
O=C1CN(C(=O)c2ccco2)C(c2ccc(F)cc2)c2cc(Cl)ccc2N1 (stereo not drawn)	-8.8%
CCOC(=O)Cn1c(N2CCCCCC2)nc2c1c(=O)[nH]c(=O)n2C	-6.0%
O=C(CN1C(=O)CCS(=O)(=O)c2ccccc21)NCc1ccc2c(c1)OCO2	-12.6%
CC(=O)Nc1ccc(OCC(O)Cn2nc(C)c(C(C)=O)c2C)cc1 (stereo not drawn)	3.5%
C/C(=N\O)C(=O)NCC1CCNCC1	6.7%
CCCS(=O)(=O)N1CCCC(C(=O)NC2CCCCC2)C1 (stereo not drawn)	2.6%
Nn1c(SCc2csc(-c3ccccc3)n2)nnc1-c1cccs1	?
C=C(C)C(O)C(CC/C=C(\C)C(=O)OCC)OC (stereo not drawn)	4.6%[11.4 µM]
Cc1cc(C)n(C(=O)CCC(=O)NCc2ccccc2)n1	6.0%

These rows are one share of the data; count on the stated rates, not on these rows.
